eIF4H FP inh = inhibitors of RNA binding by human eIF4H. 290,000 tested, 0.94% active. eIF4H fluorescence polarization binding assay. Q15056. inhibition, % at 35 µM;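 active = 50% or more with normal probe brightness, or confirmed in later tests; about a fifth of its hits are not listed in these tables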;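 note: calls also rest on retests at 20 µM and on dose response follow-up; 0% = protein and probe with vehicle and 100% = probe without protein; strong numbers were not always called active; many hits fall short of the cut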
Rce1 inhib = inhibitors of yeast Ras-converting enzyme. yeast membranes, quenched prenylated peptide cleavage fluorescence. calls only. AID 2563. Q03530. 290,000 tested, 0.27% active;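 active = fall in fluorescence gain of 50% or more versus controls, with final raw signal at or below 3038400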;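 note: plate controls were neutral control wells for no effect and wells lacking membranes for full effect; tested at 10 µM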
CSC inhib = blocks cancer stem cells. cancer stem cell-like cells viability, luminescence. 300,000 tested, 1.1% active. inhibition, % at 7.5 µM;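 active = mean at 75% or more and at least half the replicates too; tested in HMLE shEcad cells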;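 note: 0% = median of negative and 100% = median of positive control wells; the first replicate is given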
Env fusion inh = HIV envelope-mediated fusion inhibition; HeLa-JRFL Env/CEM21 cell fusion, luciferase; inhibition, % at 12.3 µM; 360,000 tested, 1.1% active;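 active = mean replicate inhibition score of at least 50 and every replicate individually at or above 50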;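 note: 0% = plate neutral controls and 100% = maraviroc near 300 nM; one replicate is shown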
MT1-MMP act inh = inhibitors of human MT1-MMP activation | P50281 | HT1080 RFP-PRO-GFP cells, GFP/RFP ratio fluorescence, overnight; percent of plate control window, DMSO zero | GFP/RFP ratio change, % at 20 µM | 360,000 tested, 0.061% active | AID 651647;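 active = GFP/RFP ratio change of at least 30% with cell ATP level not reduced by more than half and red fluorescence within 50% of control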; note: strong numbers were not always called active
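Assay system: RFP-PRO-GFP reporter HT1080 cells; read-out basis: GFP/RFP fluorescence ratio; benchmarks: DMSO wells and RFP-L50D-GFP cells; doses: 20 µM single dose, 1% DMSO; schedule: overnight cell settling, then overnight compound exposure, 37 °C, 5% CO2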
PABP FP inh = blocks human PABP binding to poly(A) RNA | P11940 | 290,000 tested, 1% active | fluorescence polarization | inhibition, % at 35 µM;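 active = 50% or more with normal probe brightness, or confirmed in later tests; about a fifth of its hits are not listed in these tables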;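 note: calls also rest on retests at 20 µM and on dose response follow-up; controls were probe without protein and protein plus probe with vehicle; some compounds called inactive have numbers as strong as hits; many hits fall short of the cut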
Target sequence (P11940 whole entry, looked up): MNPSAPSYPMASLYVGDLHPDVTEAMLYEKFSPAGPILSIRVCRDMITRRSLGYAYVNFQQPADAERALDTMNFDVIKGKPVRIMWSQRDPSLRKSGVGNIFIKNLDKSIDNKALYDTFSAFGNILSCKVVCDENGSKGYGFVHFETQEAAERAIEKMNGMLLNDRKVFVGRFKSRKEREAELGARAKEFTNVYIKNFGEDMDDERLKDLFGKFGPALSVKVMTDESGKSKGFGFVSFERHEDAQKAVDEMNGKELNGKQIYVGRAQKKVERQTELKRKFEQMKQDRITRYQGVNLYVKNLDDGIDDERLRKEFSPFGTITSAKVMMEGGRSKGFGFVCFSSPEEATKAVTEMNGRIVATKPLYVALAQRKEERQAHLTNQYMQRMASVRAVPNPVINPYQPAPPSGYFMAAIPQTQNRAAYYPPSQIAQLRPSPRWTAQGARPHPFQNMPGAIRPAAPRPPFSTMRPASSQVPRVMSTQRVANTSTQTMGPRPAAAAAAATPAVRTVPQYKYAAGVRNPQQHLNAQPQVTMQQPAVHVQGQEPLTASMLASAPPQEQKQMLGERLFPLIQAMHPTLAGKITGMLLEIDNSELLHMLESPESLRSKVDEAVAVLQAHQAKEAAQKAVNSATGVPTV
Yeast UUG start = yeast start codon fidelity modulation; S. cerevisiae UUG-firefly luciferase reporter, luminescence/redox ratio; activity score, % at 18.7 µM; 350,000 tested, 0.13% active; AID 602363;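 active = replicate mean at a twofold rise or more, about +100% in these data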;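 note: firefly luciferase made from a UUG start codon reports start codon fidelity; reporter light over untreated wells divided by growth signal over untreated wells; some hits fall short of that in this replicate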
MT1-MMP act inh RFP = further read-out of MT1-MMP act inh, marked with its call; RFP signal change, %; measured here: RFP expression control read;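 0 = vehicle wells; hits needed this value within 50% of zero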
* marks the source's active call; other numbers are inactive results; i = inactive; nt = no result given.

SMILES	eIF4H FP inh	Rce1 inhib	CSC inhib	Env fusion inh	MT1-MMP act inh	MT1-MMP act inh RFP	PABP FP inh	Yeast UUG start
COc1ccc(S(=O)(=O)N2CCOCC2)cc1NC(=O)Cc1coc2cc(C)ccc12	nt	nt	nt	11	-2	-1	nt	-5
NC(=O)CN1CCN(CCN2C(=O)c3cccc4cccc(c34)C2=O)CC1	1	i	-13	-8	1	1	-4	-7
O=C1C2C3C=CC(C3=C3CCCCC3)C2C(=O)N1c1ccccc1 (stereo not drawn)	-8	i	nt	nt	-3	-9	-4	-11
CCn1cc(Cl)c(C(=O)N2N=C3/C(=C/c4cccs4)CCCC3C2c2cccs2)n1 (stereo not drawn)	-8	i	3	1	-23	-15	6	-20
Cc1ccc(N2C(=O)CC(NNc3nc4ccccc4s3)C2=O)cc1 (stereo not drawn)	-4	i	-3	18	-1	3	0	-1
CCc1nc2ccc(F)cc2c(C(=O)NC2CCCCC2C)c1C (stereo not drawn)	3	i	-7	-98	-8	-13	10	-5
COc1ccc(CCNC(=O)Cc2ccc(Cl)cc2)cc1OC	-2	i	-7	-10	0	-1	-6	-5
CCC(C)NS(=O)(=O)c1ccc(NS(=O)(=O)c2ccccc2[N+](=O)[O-])cc1 (stereo not drawn)	3	i	-3	-1	2	4	6	-12
COC(=O)c1cccc(NS(=O)(=O)c2ccc(OC)c(C(=O)N3CCOCC3)c2)c1C	-1	i	7	7	2	6	0	-19
CCC(C)NC(=O)c1ccccc1C(=O)NC(C)CC (stereo not drawn)	-4	i	5	-12	1	3	-4	nt
COc1ccc(CNc2nccs2)cc1	-4	i	-5	-9	-2	0	6	-5
CN(C)/C=C/C(=O)c1ccc(N2CCN(c3ncc(C(F)(F)F)cc3Cl)CC2)cc1	-13	i	26	nt	-12	-5	-3	-17
CCOc1ccc(S(=O)(=O)Nc2ccc(F)cc2)c(C)c1C	1	i	-1	17	-8	-13	4	1
CC(C(=O)Nc1ccccc1-c1ccccc1)N1CCN(S(=O)(=O)c2ccccc2)CC1 (stereo not drawn)	0	i	44	17	-10	-10	3	nt
CCCC(=O)Nc1ccc(C(=O)COC(=O)C2CC2C)cc1 (stereo not drawn)	nt	nt	nt	-51	4	5	nt	-7
CCC(C)C(=O)Nc1cc(C(=O)OC)ccc1C(=O)OC (stereo not drawn)	-9	i	-12	nt	2	1	-4	nt
CC(=O)c1cccc(-c2cnc3c(NC=O)cc(-c4ccc(F)cc4)cn23)c1	nt	nt	nt	4	-1	-5	nt	15
Cc1ccc([N+](=O)[O-])cc1NC(=O)c1c(-c2ccccc2)noc1C	-17	nt	-9	nt	-3	0	-14	-15
Cc1onc(-c2ccccc2)c1C(=O)NC(C)C	-3	i	-6	-1	1	7	10	-9
CC1CCCCN1CCCNC(=O)Cn1c(=O)c2cccn2c2ccccc21 (stereo not drawn)	-4	i	-4	1	-5	2	6	-10
COc1ccc(-c2nnc(N3CCCCC3)c3ccccc23)cc1	-4	i	5	nt	4	-7	-7	11
CCCCc1ccc(CC(=O)O)cc1	-9	nt	nt	24	2	1	-5	-10
Cc1cccc(OCc2nnc(SCC(=O)NCC3CCCO3)n2C)c1 (stereo not drawn)	-2	i	-21	2	3	3	12	-6
CC(=O)c1c(N2CCN(c3ccc(F)cc3)CC2)nc(=S)n(Cc2ccccc2)c1C	32	i	-13	7	-7	0	4	-5

A draw from above in order of SMILES length, lowest first.
SMILES	eIF4H FP inh	Rce1 inhib	CSC inhib	Env fusion inh	MT1-MMP act inh	MT1-MMP act inh RFP	PABP FP inh	Yeast UUG start
CCCC(=O)Nc1ccc(C(=O)COC(=O)C2CC2C)cc1 (stereo not drawn)	nt	nt	nt	-51	4	5	nt	-7
CCOc1ccc(S(=O)(=O)Nc2ccc(F)cc2)c(C)c1C	1	i	-1	17	-8	-13	4	1
Cc1cccc(OCc2nnc(SCC(=O)NCC3CCCO3)n2C)c1 (stereo not drawn)	-2	i	-21	2	3	3	12	-6
CC1CCCCN1CCCNC(=O)Cn1c(=O)c2cccn2c2ccccc21 (stereo not drawn)	-4	i	-4	1	-5	2	6	-10
Cc1ccc([N+](=O)[O-])cc1NC(=O)c1c(-c2ccccc2)noc1C	-17	nt	-9	nt	-3	0	-14	-15
CC(=O)c1c(N2CCN(c3ccc(F)cc3)CC2)nc(=S)n(Cc2ccccc2)c1C	32	i	-13	7	-7	0	4	-5
CC(C(=O)Nc1ccccc1-c1ccccc1)N1CCN(S(=O)(=O)c2ccccc2)CC1 (stereo not drawn)	0	i	44	17	-10	-10	3	nt

The listing continues:
SMILES	eIF4H FP inh	Rce1 inhib	CSC inhib	Env fusion inh	MT1-MMP act inh	MT1-MMP act inh RFP	PABP FP inh	Yeast UUG start
COc1ccc(-c2cc(N)n(S(=O)(=O)Cc3ccccc3)n2)c(OC)c1	0	i	-6	1	-4	-3	9	-16
C/C(=N/NC(=O)c1ccc(C(C)(C)C)cc1)c1cccnc1	nt	i	5	10	4	4	nt	-5
COc1ccc(OC)c(S(=O)(=O)N2CCCCC2C(=O)O)c1 (stereo not drawn)	1	i	-9	nt	-5	3	5	-10
O=C(CNC(=O)C1COc2ccccc2O1)N/N=C\c1ccc(Cl)cc1 (stereo not drawn)	-6	i	-5	15	-3	0	1	4
CC(=O)C1=NN(c2ccccc2)C(c2ccc3c(c2)OCO3)N1c1ccc(N2CCOCC2)cc1 (stereo not drawn)	-8	i	21	-4	-4	-3	-6	-6
Cc1ccc(CNC(=O)C2CCCC2)cc1	nt	i	nt	3	-1	2	nt	-22
O=C(NCc1ccccn1)C(=O)NCC1OCCN1S(=O)(=O)c1ccc(Br)cc1 (stereo not drawn)	0	i	-32	-3	-4	-2	4	-22
Cc1csc(=O)n1CCC(=O)OCC(=O)NCc1ccccc1	nt	nt	nt	4	-3	1	nt	-3
CSC1=NCCN1C(=O)C(C)(C)Oc1ccc(Cl)cc1	nt	i	14	21	-6	0	nt	-12
CCOc1ccc(OCC(=O)Nc2cc3c(cc2C(=O)O)OCCCO3)cc1	0	i	4	-1	-3	-3	3	-5
O=C(NCC(c1ccco1)N1CCCC1)c1ccc(Cl)cc1 (stereo not drawn)	-7	i	-7	nt	1	0	-1	-18
c1ccc(COc2ccc(-c3csnn3)cc2)cc1	-4	i	1	nt	6	6	-10	-5
Cc1ccccc1COC(=O)c1cc([N+](=O)[O-])ccc1N1CCOCC1	-14	nt	-4	23	-3	-6	-1	-13
O=C(NNS(=O)(=O)c1ccc(Br)cc1)c1cccs1	2	i	-19	12	-2	1	-12	nt
COC(=O)c1cc(C(=O)NNC(=O)c2ccc3c(c2)OCO3)cc([N+](=O)[O-])c1	nt	nt	14	-2	5	-1	nt	-7
N/C(=N\OC(=O)COc1ccc(Cl)cc1)c1ccc(Cl)cc1	-2	i	-19	-17	1	2	-3	38
c1ccc2c(c1)CCNC2c1ccncc1 (stereo not drawn)	-2	i	-10	-2	-5	1	-3	-26
O=C(CNc1ccccc1)N/N=C/c1ccc2c(c1)OCO2	-4	i	-6	-15	3	2	-10	nt
Cc1nnc(SCC(=O)NCC2CCCO2)n1-c1ccccc1 (stereo not drawn)	-13	i	-14	28	1	5	-8	-20
CC1=C(C(=O)O)N2C(=O)C(NC(=O)c3nn(C)cc3[N+](=O)[O-])C2SC1 (stereo not drawn)	-2	i	-30	0	4	7	12	-4
Brc1c(-c2ccc3c(c2)OCO3)nc2ncccn12	-4	i	-14	-5	-2	-1	-10	-14
CCOC(=O)N1CCC(c2[nH][nH]c(=O)c2C)CC1	1	i	-9	-18	-1	6	14	-5
COc1ccc(-c2[nH]ncc2-c2cnn(-c3ccccc3)c2)c(O)c1	-7	i	-2	-62	1	1	12	-18
C=CCn1c(=O)[nH]c2cc(C(=O)N3CCN(c4cc(C)ccc4C)CC3)ccc2c1=O	-5	i	-6	17	-3	0	-10	-19
CC(C)(C)OC(=O)[C@H](Cc1ccccc1)NC(=O)c1nc[nH]c1C(=O)N1CCN(c2ccccc2)CC1	2	i	0	-39	-1	4	10	-8
Fc1ccc(OCCCn2ccnc2)cc1	2	i	-8	-2	-2	-1	6	-17
COc1ccc(C(=O)N2CCNC(=O)C2CC(=O)Nc2ccc(C)c(C)c2)cc1 (stereo not drawn)	2	i	-13	-8	1	7	4	-11
NNC(=O)c1cccc(S(=O)(=O)Nc2cccc(C(F)(F)F)c2)c1	-12	i	-7	4	-1	5	-6	-18
O=C(CCCn1c(=S)[nH]c2cc3c(cc2c1=O)OCO3)NCc1ccccc1Cl	8	i	-21	2	-2	-2	2	-13
O=C(NCCCN1CCc2ccccc2C1)C1CCN(S(=O)(=O)N2CCC3(CC2)OCCO3)CC1	4	i	-2	26	-1	3	-16	nt
COc1ccc(/C=N/NC(=O)CCC(=O)Nc2ccc(F)cc2)c(OC)c1	5	i	0	-11	3	5	27	-2
CC1=C(C(=O)Nc2ccccc2C)C2(CCCC2)C(C(N)=O)C(=O)N1 (stereo not drawn)	4	i	-12	-20	-8	0	0	-21
COc1ccc2ncccc2c1Cc1c(OC)ccc2ncccc12	nt	nt	nt	-5	2	-9	nt	6
CCCCN(C(=O)c1ccc(C)o1)c1c(N)n(CCCC)c(=O)[nH]c1=O	nt	i	-5	nt	-13	-4	nt	nt
O=C(COC(=O)c1ccccc1Cl)NC1CCCCCC1	nt	nt	3	nt	1	1	nt	-17
Cc1ccc(OCC(=O)N2CC(C)OC(C)C2)c([N+](=O)[O-])n1 (stereo not drawn)	5	i	-14	0	2	4	1	-9
COc1ccc(CCN2CCCC(CN(C)Cc3cccc(OC)c3)C2)cc1 (stereo not drawn)	0	i	13	7	3	2	9	-11
CC(=O)Nc1cccc2c1Cc1ccccc1-2	2	i	1	nt	2	1	-9	-4
COc1ccccc1OCC(=O)N(Cc1nc(-c2ccccc2)no1)C1CCCCC1	-8	nt	nt	nt	-2	-9	-14	7
Cc1cc(C)n(C(=O)CNC(=O)c2ccc3c(c2)OCCO3)n1	-1	i	-13	nt	6	6	2	-7
COCCCN1C(=O)C(CC(=O)NCc2cccs2)CC(C(=O)N2CCOCC2)=C1C (stereo not drawn)	nt	nt	nt	1	1	3	nt	-12
COC(=O)CCCC1=CC2=CC(=O)C(C)(OC(=O)c3cccs3)C(=O)C2=CN1Cc1ccc2c(c1)OCO2 (stereo not drawn)	20	i	-6	-2	6	12	12	7
CCc1nc2ccccc2c(C(=O)Nc2ccc(F)cc2)c1C	-6	i	-3	2	0	0	-7	-10
CC(C)N(C)C1CCN(C(=O)Nc2ccc(Cl)cc2)CC1	10	i	5	8	1	3	9	-16
S=C(Nc1ccccc1)Nc1cccc(Cl)c1Cl	-3	i	nt	8	1	4	4	nt
Cc1[nH]c(=O)[nH]c(=O)c1S(=O)(=O)Nc1cccc([N+](=O)[O-])c1C	-8	i	-8	-4	1	3	-7	-12
CCOC(=O)C1CCN(CC(=O)Nc2c(C(=O)OC)n(C)c3cccc(C)c23)CC1	-4	i	-11	nt	-6	1	7	-16
CC(CNC(=O)c1ccc(OC2CCN(Cc3ccccn3)CC2)cc1)c1ccccc1 (stereo not drawn)	-9	i	-12	-10	6	0	4	-9
O=C(Nc1ccc(-c2cn3ccsc3n2)cc1)C1COc2ccccc2O1 (stereo not drawn)	-9	i	19	nt	0	-11	6	-18
COc1cccc(OCc2nc3ccccc3[nH]2)c1	-10	i	9	-56	4	6	-2	-29
COc1ccc(NC(=O)Cc2ccc(C)cc2)cc1S(=O)(=O)N1CCCCC1	nt	nt	-19	6	2	0	nt	-6
CCC(=O)Nc1nnc(-c2ccc(Cl)s2)o1	-1	i	15	-9	2	2	-1	nt
CC1=C(C#N)C(NC(=O)C(C)(C)C)(C(F)(F)F)C(=O)N1 (stereo not drawn)	1	i	1	-22	3	-2	-1	-7
CCC(=O)NC(=S)NNC(=O)c1ccc(O)cc1	10	i	-5	1	0	0	-7	22

Screens as filed in PubChem.
